# VDR inhibitor = blocks the human vitamin D receptor; P11473; VDR-SRC2-3 peptide fluorescence polarization, 2 h; Potency, µM, without a hit: max response, negative = inhibition, usual class: inhibitors; 400,000 tested, 0.93% active; active = well fitted inhibition curve with a large enough effect; inconclusive = small, poorly fitted or top-dose-only effect, or another doubt; inactive = no such curve, though single readings can be large or run the other way; note: series mostly up to about 120 µM
# Target sequence (P11473 whole entry, looked up): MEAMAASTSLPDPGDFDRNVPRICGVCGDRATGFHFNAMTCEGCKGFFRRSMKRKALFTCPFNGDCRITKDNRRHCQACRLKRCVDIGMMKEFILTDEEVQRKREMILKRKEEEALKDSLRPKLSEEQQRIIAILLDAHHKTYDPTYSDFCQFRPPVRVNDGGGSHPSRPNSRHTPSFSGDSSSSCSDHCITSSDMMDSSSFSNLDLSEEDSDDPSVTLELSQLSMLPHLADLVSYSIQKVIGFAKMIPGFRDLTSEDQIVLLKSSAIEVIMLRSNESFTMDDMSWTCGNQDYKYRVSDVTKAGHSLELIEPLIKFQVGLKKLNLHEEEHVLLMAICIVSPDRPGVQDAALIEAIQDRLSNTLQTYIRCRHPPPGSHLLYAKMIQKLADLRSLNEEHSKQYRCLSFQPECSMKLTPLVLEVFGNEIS
#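 Fluorescence polarization assay measuring small-molecule disruption of VDR binding to the coregulator peptide SRC2-3. Compounds were pin-transferred (23 nl) into the reagent mix and incubated 2 h at room temperature before reading.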
# * marks the source's active call; other numbers are inactive results; ? = inconclusive; [ ] = remark or other dose. % is set by controls: 0 for no effect and ±100 for the full control effect; potency is the fitted concentration of half-maximal effect.
SMILES,VDR inhibitor
O=C(Cc1ccccc1)NNc1c2ccccc2nc2ccccc12,14.8%
O=C(Nc1ccc2c(c1)C(=O)NC2=O)c1ccc2ncsc2c1,-2.7%
Cc1cc(N)n(Cc2ccc(Cl)cc2)n1,-10.5%
CN(C)C(=S)NC(=S)Nc1ccc2ccccc2c1,0.8%
CCN(CC)CCn1c2c(c(SCC(=O)Nc3nc4ccccc4s3)nc1=O)CCCC2,-18.0%
CC1CCN(CC(O)COc2cccc(F)c2)CC1 (configuration not stated),2.3%
Cc1cc(=O)oc2cc(OCc3ccc(C(=O)N4CCN(c5ccc([N+](=O)[O-])cc5)CC4)cc3)ccc12,43.2%[activator]
COc1ccc(NC(=O)C2CCCN2C(=O)OCc2ccccc2)c(OC)c1 (configuration not stated),1.0%
COc1cc(OC)cc(-c2c(-c3cccs3)c3cc(-c4ccc(N(C)C)nc4)ccc3n2C)c1,17.7%
Cc1ccc(NC(=O)c2ccc(S(=O)(=O)N3CCOCC3)cc2)nc1,-2.8%
COc1cccc(NC(=O)CN(C)C(=O)c2cccc(NS(=O)(=O)c3ccccc3)c2)c1,-12.8%
Cc1cccc(N(C(=O)CNC(=O)c2ccco2)C(C(=O)NC2CCCCC2)c2cccnc2)c1 (configuration not stated),-15.4%
CCC(C)NC(=O)c1ccc2c(c1)N(Cc1ccccc1)C(=O)c1ccccc1S2(=O)=O (configuration not stated),-7.1%
Cc1ccc([C@H]2C(C(=O)O)=CC[C@@H](c3cccs3)N2S(=O)(=O)c2ccc(C)cc2)cc1,-3.9%
COCC(C)NC(=O)C(C)Oc1ccccc1 (configuration not stated),-16.9%
O=C(NCc1ccco1)NC12CC3CC(CC(C3)C1)C2,-4.3%
COc1cccc(C2NC(=O)NC(C)=C2C(=O)Nc2ccc(C)cc2)c1 (configuration not stated),24.6%
O=C(O)CCCNC(=O)CCCn1nnc2ccccc2c1=O,-8.2%
C=CCNC(=O)CN1CCC(n2c(C)nc3cc(C(F)(F)F)ccc32)CC1,-4.7%
COCCCNC(=O)CCc1c(C)nc2cc(-c3ccc(Cl)cc3)nn2c1C,4.6%
CCC(CC)NC(=O)c1cc(OC)c(OC)cc1[N+](=O)[O-],-1.8%
COc1ccc2cc(-c3nc4ccc(C(=O)O)cc4[nH]3)c(=O)oc2c1,0.2%
Cn1c(=O)c2c(-c3ccc(Cl)cc3)n(Cc3ccc(Cl)cc3)cc2n(C)c1=O,-1.7%
Cc1[nH]c(=O)c(C#N)c(C)c1Cl,-9.8%
CN(C)CCCNc1ncc(C(F)(F)F)cc1Cl,-11.7%
CC(C)N1CCC(n2nccc2NC(=O)c2ccc3c(c2)OCO3)CC1,-0.9%
CCC/C(O)=C1\C(=O)CCCC1=NCCCCCC(=O)O,-4.2%
CCCCN(CC)CCCNC(=O)c1cn(CC)c2ccc(S(=O)(=O)N3CCOCC3)cc2c1=O,-0.5%
COc1cc(C)ccc1OCCSc1nc2ccc(NC(C)=O)cc2s1,-2.3%
CCc1ccc(S(=O)(=O)c2cn(CC)c3cc(N4CCOCC4)c(F)cc3c2=O)cc1,-4.2%
COc1cc(OC)c2c(c1C(CCN1CCCCC1)c1ccc(N(C)C)cc1)OC(=O)CC2c1ccc(N(C)C)cc1 (configuration not stated),-6.9%
CCOC(=O)C1=C(COC(=O)/C=C/c2ccc(OC)cc2)NC(=O)NC1C (configuration not stated),0.7%
Cc1c(C(=O)OCC(=O)NCCN2C(=O)CSC2=O)cccc1[N+](=O)[O-],-17.1%
C/C=C1\COC(C(=O)NCCCN2CCCC2=O)(C(F)(F)F)C=C1C=C(C)C (configuration not stated),?
COC(=O)CN1C(=O)CSc2ccc(S(=O)(=O)Nc3c(C)cc(C)cc3C)cc21,1.6%
CCOCCCNC(=O)C(c1ccc(Cl)cc1)N1CCC2(CC1)OCCO2 (configuration not stated),-2.8%
O=C(NCC1CCCO1)C(=Cc1cccc([N+](=O)[O-])c1)C(=O)NCC1CCCO1 (configuration not stated),2.1%
CC(=O)N(C)c1ccc(N=Nc2ccc3ncccc3c2)cc1,-8.6%
Nc1cccc2nsnc12,1.6%
O=C(CSc1cccc2cccnc12)OCC(=O)c1ccccc1,20µM*
CC1CCCN(C(=O)CN(C)S(=O)(=O)c2ccc3c(c2)c(=O)n(C)c(=O)n3C)C1 (configuration not stated),20.2%
CCc1nnc(SCC(=O)NCCC2=CCCCC2)nc1CC,-14.3%
CCc1ccc(NC(=O)CCS(=O)(=O)c2ccc3c(c2)oc(=O)n3C)cc1,-10.1%
COc1ccc(S(=O)(=O)N2CCCC2)cc1C(C)C,-10.3%
FC(F)Oc1ccc(NC(=S)NCc2ccccc2)cc1Cl,4.4%

# Structures shown so far containing an aryl thioether with sulfur outside any ring (four):
SMILES,VDR inhibitor
CCN(CC)CCn1c2c(c(SCC(=O)Nc3nc4ccccc4s3)nc1=O)CCCC2,-18.0%
COc1cc(C)ccc1OCCSc1nc2ccc(NC(C)=O)cc2s1,-2.3%
O=C(CSc1cccc2cccnc12)OCC(=O)c1ccccc1,20µM*
CCc1nnc(SCC(=O)NCCC2=CCCCC2)nc1CC,-14.3%

# The list continues:
SMILES,VDR inhibitor
O=C(Oc1ccc2c3c(c(=O)oc2c1)CCCC3)c1ccco1,-13.7%
Cc1ccccc1NC(=O)CSc1nc(N)c2c3c(sc2n1)CSC(C)(C)C3,2.0%
Cc1ccc(-c2nc3cccnc3s2)cc1NC(=O)Cc1ccccc1,15.0%
COc1cc(Cl)c(C)cc1NC(=O)Cn1c2ncccc2c(=O)n1-c1ccccc1,8.6%
CN(CCO)CCC(=O)NC1(C)CS(=O)(=O)CC1S(=O)(=O)O (configuration not stated),2.3%
Cc1cc(NC(=O)CSc2nc3c(cc2C#N)CCCCC3)no1,1.6%
CCc1cccc(C)c1Nc1c(-c2ccc(N3CCOCC3)cc2)nc2ncccn12,-3.3%
COCC(C)NC(=O)c1cnn2c(C(F)F)cc(-c3ccccc3)nc12 (configuration not stated),-19.5%
Cc1ccccc1Cc1c(C)nc2ncnn2c1C,-2.5%
Fc1ccc([C@H]2CCNC[C@H]2COc2ccc3c(c2)OCO3)cc1,-0.9%
CN(Cc1ccccc1)c1ccc([N+](=O)[O-])cc1C(=O)O,-0.6%
O=C(Nc1ccc(S(=O)(=O)N2CCOCC2)cc1)c1cccc(Br)c1,-5.3%
Cc1cc(C)nc(N2CCCC(CCC(=O)NCc3ccc(F)c(F)c3)C2)n1 (configuration not stated),-5.2%
Cc1ccc(-n2c(C)nn(CC#N)c2=O)cc1,-15.5%
O=C(N/N=C/c1ccc[nH]1)c1ccc(O)cc1,11.8%
CN(Cc1ccccc1)C(=O)CCNC(=O)Cn1cnc2ccccc2c1=O,15.8%
O=C(NCCN1CCOCC1)c1cc(S(=O)(=O)Nc2ccccc2F)c(Cl)cc1Cl,-8.6%
CCOC(=O)c1c(C)n(-c2ccccc2)c2ccc(OC(=O)c3ccccc3)cc12,3.1%
COc1ccc(C2(Nc3cccc(C(=O)O)c3C)C(=O)c3ccccc3C2=O)cc1,15.1%
C=CCn1c(/N=C/c2ccc3c(c2)OCO3)nc2ccccc21,21.5%
O=C(CC1SC(N2CCCCC2)=NC1=O)Nc1ccc(C(=O)NCc2ccccc2)cc1 (configuration not stated),2.9%
COc1ccccc1/C=C/C=N/NC(=O)Cc1cccn1C,-5.3%
O=C(Cn1cc(C(F)(F)F)cc(Cl)c1=O)Nc1cccc(S(=O)(=O)N2CCCCC2)c1,8.4%
COc1cc(/C=N/NC2=NC(C)(C)Cc3ccccc32)cc(OC)c1OC,7.4%
Cc1ccc(OCC(O)Cn2c(=N)n(CCN3CCOCC3)c3ccccc32)cc1 (configuration not stated),8.7%
COc1ccc(CN=C(N)N=C(N)N)cc1Cl,1.8%
OC(CC(O)c1ccccc1)c1ccccc1 (configuration not stated),-3.7%
COc1ccc(-n2nnnc2SCC(=O)N2CCCC2)cc1OC,7.2%
COc1ccc(-c2nc3ccccc3o2)cc1NC(=O)c1cccnc1,14.1%
Nc1nnc(SCC(=O)Nc2ccc3nc(SCC(=O)Nc4ccccc4)sc3c2)s1,10.4%
C/C(=N\NC(=O)C1(C)CC1(Br)Br)c1cccc(NC(=O)C2CCC2)c1 (configuration not stated),-3.3%
c1ccc(-c2nnc(C3CC(c4ccncc4)=NO3)o2)cc1 (configuration not stated),4.2%
CCCCCCCCSc1nnc(-c2ccc(OC)cc2)o1,1.3%
Cc1ccc(NS(=O)(=O)c2ccc(C(=O)NCCCN3CCCC3=O)cc2)cc1C,-6.8%
COc1ccc(C)cc1NC(=O)CN(c1ccc(F)cc1)S(C)(=O)=O,-1.8%
COc1cccc(OC)c1C(=O)Nc1c(C(=O)N2CCN(C)CC2)oc2ccccc12,1.9%
COc1ccc(CN2CCNC(=O)C2CC(=O)NC2CCOCC2)c(F)c1 (configuration not stated),-12.1%
CCOc1ccc(NC(=O)CC2C(=O)OCCN2CC)cc1 (configuration not stated),-15.8%
O=C(O)c1ccccc1C(=O)N1CCN(c2cccc(Cl)c2)CC1,4.2%
Cc1ccc(N(CC(=O)N/N=C/c2ccco2)S(=O)(=O)c2ccccc2)cc1,11.1%
CN1C(=O)N(c2ccc(Cl)cc2)C(C)(O)CC1(C)C (configuration not stated),-1.2%
O=S(=O)(Nc1ccc(-c2csc(-c3ccccc3)n2)cc1)c1ccccc1,5.6%
COc1ccc(-c2ccc(-c3noc(C4CCCCC4)n3)c(OC)n2)cc1,-2.8%
O=C(COC(=O)c1cnccn1)Nc1c(Cl)cc(Cl)cc1Cl,8.7%
Cc1nn(-c2ccc(N3CCOCC3)nn2)c(C)c1CCC(=O)Nc1ccc(F)cc1,-8.9%

# VDR inhibitor, what is marked active above.
SMILES,VDR inhibitor
O=C(CSc1cccc2cccnc12)OCC(=O)c1ccccc1,20µM*

# Further structures
SMILES,VDR inhibitor
COc1cc(OC)c(NC(=O)c2cn(C)c(=O)c3cc(OC)c(OC)cc23)cc1Cl,-0.4%
Cc1ccc(C2(c3noc(CN(C)CC4CCCCO4)n3)CCCC2)cc1 (configuration not stated),4.2%
O=C(Cn1ccc(C(F)(F)F)n1)NNC(=O)c1ccco1,-3.2%
O=C(CS(=O)(=O)Cc1ccccc1)NCc1ccc2c(c1)OCO2,-6.6%
C=CCn1c(=O)c2c(nc3n2CC(C)CN3c2cccc(OC)c2)n(C)c1=O (configuration not stated),6.0%
Cc1ccc(S(=O)(=O)N2CCSC2C(=O)O)cc1 (configuration not stated),1.7%
CCOc1ccc(NC(=O)COC(=O)c2cc(S(=O)(=O)N3CCCC3)ccc2C)cc1,16.2%
CCC(C)Nc1nc(N)c([N+](=O)[O-])c(NC2CCCCC2)n1 (configuration not stated),4.1%
Cc1oc(-c2ccc(Cl)cc2)nc1CN1CCC(C(=O)NCc2cccs2)CC1,-9.2%
Cc1ccc(C(=O)Nc2ccc(Cl)cc2C)c(Cl)c1,-7.8%
Cc1[nH]n(-c2ccccc2)c(=O)c1/C=N/NC(=O)c1ccccc1F,58.0%[activator]
CN(C)/C(Cn1cncn1)=C1/N=C(c2c(F)cccc2F)OC1=O,0.7%
COc1cc(C(=O)OCC(=O)N2CCCC2=O)cc(OC)c1C,-2.9%
CC(=O)Nc1ccc(S(=O)(=O)Nc2ccc(-n3cnnn3)cc2)cc1,-16.0%
CC(C)Cc1cc(C(=O)O)c2ccccc2n1,10.8%

# Next part, overlapping the part above by four compounds.
SMILES,VDR inhibitor
CN(C)/C(Cn1cncn1)=C1/N=C(c2c(F)cccc2F)OC1=O,0.7%
COc1cc(C(=O)OCC(=O)N2CCCC2=O)cc(OC)c1C,-2.9%
CC(=O)Nc1ccc(S(=O)(=O)Nc2ccc(-n3cnnn3)cc2)cc1,-16.0%
CC(C)Cc1cc(C(=O)O)c2ccccc2n1,10.8%
CCOc1ccc(NC(=O)c2oc3ccccc3c2NC(=O)C(C)(C)C)cc1,7.9%
O=C(Nc1ccccc1)N1CCCC2(CCN(C(=O)c3csnn3)CC2)C1,3.1%
O=C(CSCc1cnn(-c2ccccc2)c1-n1cccc1)Nc1ccc(F)cc1F,2.9%
CSCC[C@H](NC(=O)N1CCn2c1nc1ccccc12)C(=O)NCc1ccc2c(c1)OCO2,-7.6%
C=CCOc1ccc(/C(CC)=N/O)cc1OC,4.4%
COCC(=O)NNC(=O)Cc1ccc(Cl)cc1,8.1%
Cc1ccccc1OCCNC(=S)Nc1ccccc1,9.6%
O=C(Nc1ccc2c(c1)OCO2)C1CCCN1C(=O)Nc1cccc(F)c1 (configuration not stated),2.5%
O=S(=O)(CCc1ccncc1)Cc1ccc2c3c(cccc13)CC2,-8.4%
COCCCNC(=O)c1ccc2nc3ccccc3c(=O)n2c1,-14.5%
CC(=O)Oc1cccc(C(=O)Nc2ccccc2NC(=O)c2cccc(OC(C)=O)c2)c1,-10.4%
CCCSC1=NN2CCCC(=O)N=C2S1,-3.2%
CCS(=O)(=O)c1ccc2oc(Nc3ccc(C(C)C)cc3)nc2c1,39.8µM*
C=CCc1ccc(OCCOCCNCCOC)c(OC)c1,-1.4%
Cc1c(CN(C)CCc2ccccc2)c(=O)n(-c2ccccc2)n1C,-1.7%
O=C(c1ccc(CS(=O)(=O)c2ccccc2)o1)N1CCN(c2ncccn2)CC1,-9.6%
C[C@H](CCC(=O)NCC(=O)O)C1CC[C@H]2C3CC[C@@H]4C[C@H](O)CC[C@]4(C)C3C[C@H](O)[C@]12C (some centres not stated),-18.0%
COc1ccc(CC(=O)NCC(c2ccc(OC)cc2)N(C)C)cc1 (configuration not stated),-15.4%
CCOC(=O)c1cnn2c(C(F)(F)F)cc(-c3ccco3)nc12,0.2%
CN(C)Cc1ccccc1-c1ccc2ncnc(N3CCOCC3)c2c1,1.5%

# Bioassay records: PubChem, National Center for Advancing Translational Sciences (NCATS)

# Some of the compounds tested, so the mix of outcomes need not match the whole.
